VDR inhibitor = blocks the human vitamin D receptor; AID 504847; Potency, µM, for the others: max response, negative = inhibition, usual class: inhibitors; P11473; VDR-SRC2-3 peptide fluorescence polarization, 2 h; 0.93% of 400,000 active; active = well fitted inhibition curve with a large enough effect; inconclusive = small, poorly fitted or top-dose-only effect, or another doubt; inactive = no such curve, though single readings can be large or run the other way; also: series mostly up to about 120 µM
Target sequence (P11473 whole entry, looked up): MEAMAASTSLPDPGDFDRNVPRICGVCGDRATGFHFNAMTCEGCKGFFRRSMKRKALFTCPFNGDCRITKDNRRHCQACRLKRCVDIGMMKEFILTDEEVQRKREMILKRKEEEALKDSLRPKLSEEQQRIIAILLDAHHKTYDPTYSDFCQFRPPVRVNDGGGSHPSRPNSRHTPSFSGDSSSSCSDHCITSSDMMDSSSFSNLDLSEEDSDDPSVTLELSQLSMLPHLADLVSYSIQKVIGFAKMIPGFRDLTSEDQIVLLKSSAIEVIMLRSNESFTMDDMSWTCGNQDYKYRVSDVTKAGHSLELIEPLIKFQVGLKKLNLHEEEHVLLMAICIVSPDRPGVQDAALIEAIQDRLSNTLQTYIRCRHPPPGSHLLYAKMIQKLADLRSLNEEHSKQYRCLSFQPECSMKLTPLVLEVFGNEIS
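After 23 nl compound addition and a short centrifugation, plates sat for 2 hours at ambient temperature; polarization of fluorescence then indicated loss of VDR binding to peptide SRC2-3.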
The depositor's hits bear a star; u = inconclusive; [ ] = dose if it differs, or a comment. % is scaled to controls: 0 for no effect and ±100 for the full control effect; potency is read from the fitted curve at half-maximal effect. This is a subset, so the mix of outcomes need not match the whole.

no.	VDR inhibitor	SMILES
1	-2%	COCCNC(=O)CN(C)S(=O)(=O)c1ccc2c(c1)OCCO2
2	-2%	Cc1c(C(=O)NC(C(C)C)C(C)C)cccc1[N+](=O)[O-]
3	-21%	Cc1ccc(C(=O)/C=C/c2cn(CC(O)CN3CCOCC3)c3ccccc23)cc1 (configuration not stated)
4	3%	O=c1c2ccccc2ncn1-c1ccc2c(c1)OCCO2
5	-7%	CCOC(=O)C1=C(COC(=O)COc2ccc(C#N)cc2)NC(=O)NC1C (configuration not stated)
6	13%	Cc1ccccc1-c1ccc(C=Nc2c(C)n(C)n(-c3ccccc3)c2=O)o1
7	5%	Cc1csc(C(C#N)C(=O)c2ccncc2)n1 (configuration not stated)
8	12%	CCOc1ccccc1N1CCN(C(=O)c2cc(S(=O)(=O)N(C)C)ccc2N2CCCC2)CC1
9	-11%	COC(=O)c1ccc(-n2ccnc2)cc1
10	9%	O=C(N/N=C/c1c(F)cccc1Cl)C(=O)N1CCCCCC1
11	-3%	COc1ccc(C2CC(c3cccs3)=Nc3ccccc3S2)cc1OC (configuration not stated)
12	17%	CC(=O)Nc1ccc(S(=O)(=O)Nc2nccc(C3Cc4ccccc4C(=O)O3)n2)cc1 (configuration not stated)
13	-6%	COc1ccc(Cc2n[nH]c(=S)n2NC(=O)Nc2ccc(C)cc2)cc1
14	17%	O=[N+]([O-])c1cc(/C=N/N2CCN(Cc3ccccc3)CC2)ccc1Cl
15	-12%	Cc1ccc2nc(-c3ccccn3)cc(C(=O)NC(C)C(C)(C)C)c2c1 (configuration not stated)
16	-5%	CSc1nc(N)nc(SC2C=CCCC2)c1C#N (configuration not stated)
17	5%	O=C(OCc1cc2ccccc2[nH]c1=O)c1ccco1
18	8%	CNC(=O)COC(=O)c1cccnc1SC
19	-13%	CCn1c2ccc(CC(=O)O)cc2c2cc(CC(=O)O)ccc21
20	-13%	CCCCc1cc(=O)oc2c(C)c(OCC(=O)N3C[C@H]4C[C@@H](C3)c3cccc(=O)n3C4)ccc12
21	25µM*	CC(=O)C1=C(c2ccc(Br)cc2)C(=O)c2ccccc2C1=O
22	-8%	COc1ccc(C#Cc2c(C=O)n(C)c3ccccc23)cc1
23	-7%	CCc1ccc2c(CN3CCN(S(=O)(=O)c4ccccc4F)CC3)cc(=O)oc2c1
24	6%	COc1cccc(CC(CC(=O)O)C(=O)Nc2cc(C)ccc2C)c1 (configuration not stated)
25	-5%	Cc1ccc(S(=O)(=O)n2nc(-c3ccco3)nc2SCc2ccccc2)cc1
26	u	CCCCNC(=O)c1sc2ncnc(N3CCc4ccccc4C3)c2c1C
27	-16%	Cc1c(C(=O)N2CCCCC2CCN2CCCC2=O)oc2c(F)cccc12 (configuration not stated)
28	-19%	CN(C)C(=O)c1ccc(NC(=O)COc2ccc([N+](=O)[O-])cc2)cc1
29	20%	Cc1cc(C)cc(NC(=O)Cc2csc(COc3cccc(C)c3)n2)c1
30	-19%	Cc1nn(CCO)c2ncc(C(=O)c3cc(F)ccc3O)cc12
31	4%	COc1ccc(C)c2sc(NC(=O)c3ccc(S(=O)(=O)N4CCOCC4)cc3)nc12
32	17%	COc1ccccc1C(=O)Nc1ccccc1OCc1cc(=O)n2ccccc2n1
33	1%	CCn1cc(C(=O)N2CCc3ccccc32)c(=O)c2cc(S(=O)(=O)N3CCOCC3)ccc21
34	-4%	Cc1ccc(-n2nc(C(=O)N(C)c3ccccc3Cl)c3c4ccccc4n(C)c3c2=O)cc1
35	5%	Cc1cc(NC(=O)CSCCO)no1
36	-13%	CCOC(=O)c1ccc(-c2ccc(CO)o2)cc1
37	-8%	Cc1cccc(N2CCN(C(=O)COc3cccc4c3OC(C)(C)C4)CC2)c1C
38	13%	c1ccc2c(c1)ccn2CCCN1CCCCC1
39	-6%	O=C1COc2cc(S(=O)(=O)CCC(=O)N3CCN(c4cccc(Cl)c4)CC3)c(Cl)cc2N1
40	13%	COC(=O)Cn1c(=O)c2c(nc3n2CCCN3CCc2ccc(OC)c(OC)c2)n(C)c1=O
41	-1%	Cc1cccc(NC(=O)c2nc[nH]c2C(=O)NCc2ccccc2)c1
42	-5%	CC(=O)c1sc(NC(=O)c2c(F)cccc2F)nc1-c1ccccc1
43	1%	COCCn1c(=O)c(-c2ccc(OC)cc2)nc2cnc(Oc3cccc(Cl)c3)nc21
44	-5%	O=C(NC1CCCC1)C1CCN(C(=O)c2ccc(Cl)cc2)CC1
45	3%	CCC(=O)N/C(N)=N/c1nc(C)c2cc(C)c(C)cc2n1
46	4%	O=C(Nc1nnc(SCc2ccc(F)cc2)s1)c1ccccn1
47	6%	COc1cccc2c1OC1(C)CC2/C(=C(\C)O)C(=O)N1 (configuration not stated)
48	-16%	CCOc1ccccc1-n1c(N)c(C(=O)OC)c2nc3ccccc3nc21
49	-22%	O=C1Nc2ccccc2OC1CC(=O)N1CCN(c2cccc(C(F)(F)F)c2)CC1 (configuration not stated)
50	32%[activator]	CCOC(=O)c1c(NC(=O)COc2cc(C)ccc2C(C)C)sc2c1CCCC2
51	12%	O=C(OCn1nnc2ccccc2c1=O)c1ccc(O)cc1
52	-8%	O=C(COc1ccc(Br)cc1)Nc1ccc2oc(=O)ccc2c1
53	1%	CCC(C(=O)O)N1C(=O)/C(=C/c2cccn2C)SC1=S (configuration not stated)
54	27%	CCCCNC(=O)CCCn1c(=O)c2ccccc2n(Cc2ccc(Cl)cc2)c1=O
55	-6%	CC1CCOC(c2coc3ccccc3c2=O)O1 (configuration not stated)
56	9%	CCNC(=S)NS(=O)(=O)c1ccc(C)cc1
57	0%	CCCn1nc(NS(=O)(=O)c2ccc(F)cc2)c2cc3ccccc3nc21
58	1%	Cc1ccccc1CN1c2ccccc2S(=O)(=O)c2ccccc21
59	-6%	Cc1nc(CC(=O)Nc2ccc(C(N)=O)cc2)cs1
60	-4%	CC(C)c1ccc(Cc2nnc(NCCCO)[nH]c2=O)cc1

Further results:
no.	VDR inhibitor	SMILES
61	20%	CC(C)(C)n1ncc2c(=O)n(CC(=O)c3ccccc3)cnc21
62	-23%	NC(=O)C1CC(=O)N(CCc2ccc(F)cc2)C1 (configuration not stated)
63	-1%	CCc1ncc(/C=C2\C(=O)Nc3ccccc32)[nH]1
64	-8%	O=C(/C=C/c1ccccc1[N+](=O)[O-])Nc1cccnc1
65	-10%	Cc1cccc(C)c1NC(=S)NC(=O)CCc1ccccc1
66	-10%	CCc1ccccc1NC(=O)CN1CCN(C(=O)CN2C(=O)NC3(CCCCC3C)C2=O)CC1 (configuration not stated)
67	-19%	CC(Sc1nnc(-c2ccco2)n1C)C(=O)Nc1nccs1 (configuration not stated)
68	-19%	Cc1ccc(C(=O)N2CCCCC2)cc1S(=O)(=O)N1CCCCCC1
69	6%	COCCCN(C(=O)Nc1cccc(Cl)c1)C(C)c1ccccn1 (configuration not stated)
70	14%	Cc1ccc(CSC2=NCCN2S(=O)(=O)c2ccc(F)cc2)cc1
71	12%	O=C1c2ccccc2[C@@H]2C[C@@H](O)[C@H](Nc3ccccc3Cl)CCN12
72	5%	CC(=O)c1ccc(NC(=O)CCn2nc(C)c(S(=O)(=O)N3CCC(C)CC3)c2C)cc1
73	-7%	CC(C)(C)c1nc2scc(-c3ccc(Br)cc3)c2c(=O)o1
74	7%	COc1cccc(/C=N/n2c(C3CCCCC3)n[nH]c2=S)c1O
75	12%	CCOc1ccc(C2=C(C=C(C#N)C#N)C(c3ccccc3)c3ccccc3O2)cc1 (configuration not stated)
76	-8%	COc1ccc(NC(=S)Nc2cc(C)[nH]n2)cc1Cl
77	-8%	O=[N+]([O-])c1ccc2[nH]cc(S(=O)(=O)N3CCN(c4cccc(Cl)c4)CC3)c2c1
78	11%	Cn1nc(C(C)(C)C)cc1NC(=O)Nc1ccc(Cl)cc1
79	18%	CN(C)CCNC(=O)Cn1nc(N2CCN(c3ccccc3)CC2)ccc1=O
80	-12%	O=C(COC(=O)c1cc([N+](=O)[O-])ccc1NCc1ccccc1)NC1CCCCC1
81	u	CCCCC1=CC2=C(c3ccco3)C(=O)C(C)(OC(=O)c3ccc(OC)cc3)C(=O)C2=CN1Cc1ccccc1 (configuration not stated)
82	-7%	CCOC(=O)c1c(NC(=O)C(C)Sc2cn(CCNC(=O)c3ccc(OCC)cc3)c3ccccc23)sc2c1CCC2 (configuration not stated)
83	-13%	Cc1cccc2cc(CN(Cc3cccs3)C(=S)NCc3ccco3)c(=O)[nH]c12
84	-7%	O=C(c1ccc(CN2CCOCC2)cc1)N1CCN(c2cccc(Cl)c2)CC1
85	22%	COc1ccc(C)cc1NC(=O)CSc1nnc(COc2ccc(C)cc2)n1Cc1ccco1
86	-11%	O=C(/C=C/c1ccc(Cl)cc1Cl)NCc1ccco1
87	u	CCCCNC(=O)O[C@@H]1C[C@@H]2CCN3C(=O)CCC[C@H]([C@H]1CC)[C@H]23
88	14%	O=S(=O)(c1ccc(F)cc1)N1CCN(c2ncnc3c2cnn3-c2ccccc2)CC1
89	0%	COc1ccc(CCNC(=O)c2nnn(CC(=O)Nc3c(C)cc(C)cc3C)c2N)cc1OC
90	1%	c1ccc(-c2cc(-c3nnco3)c3ccccc3n2)nc1
91	6%	CCC(CC)C(=O)N=C1SC2CS(=O)(=O)CC2N1CCc1ccc(OC)cc1 (configuration not stated)
92	10%	COc1ccc(CCN2C(=O)c3[nH]nc(-c4ccccc4O)c3C2c2cccc(Cl)c2)cc1 (configuration not stated)
93	-3%	Cc1ccc(N2C(=O)CSC2c2cccnc2)c(Cl)c1 (configuration not stated)
94	-15%	Cc1ccc(NC(=O)NC2CCCN2S(=O)(=O)c2ccc(Cl)cc2)cc1 (configuration not stated)
95	0%	CCOC(=O)C1(C(F)(F)F)N=C(c2cccnc2)OC(N2CCOCC2)=N1 (configuration not stated)
96	-14%	COC(=O)C1=CO[C@@H](O[C@@H]2O[C@H](CO)[C@@H](O)[C@H](O)[C@H]2O)C2C1C=C[C@@]2(O)CO (some centres not stated)
97	-4%	COc1cc(OC)cc(-n2c(=O)c3ccccc3n(Cc3ccccc3C#N)c2=O)c1
98	10%	CC(=O)Nc1ccc(C(=O)CN2C(=O)CSC2=O)cc1
99	-8%	CC(=O)N(CCC(Cc1ccccc1)c1ccc2c(c1)OCO2)Cc1ccccc1F (configuration not stated)
100	5%	Cc1noc(C)c1COc1ccc(C(=O)OCC(=O)NC23CC4CC(CC(C4)C2)C3)cc1
101	1%	Cc1ccc(N(C(=O)CNC(=O)c2ccco2)C(C(=O)NCC2CCCO2)c2ccccc2)c(C)c1 (configuration not stated)
102	4%	Cc1cc(-c2ccc(C)c(S(=O)(=O)N3CCN(c4cccc(C(F)(F)F)c4)CC3)c2)on1
103	6%	COc1cc(NC(=O)C(F)(F)F)cc(OC)c1
104	-12%	CN(c1ccc(C(=O)NCc2cccs2)cc1)S(=O)(=O)c1ccccc1
105	-27%	C/C=C\C=C\C(=O)Nc1cccc(C2=NOC3(C2)C[C@H](C(N)=O)N(C(=O)c2ccccc2C(=O)c2ccccc2)C3)c1 (some centres not stated)
106	5%	C=CCn1c(=O)/c(=C\c2ccsc2)s/c1=C(/C#N)C(=O)NCCN1CCOCC1
107	-3%	O=C(NCc1ccncc1)Nc1ccccc1
108	22µM*	O=C1/C(=C/c2ccccc2[N+](=O)[O-])COc2ccccc21
109	-13%	CC1CC(c2ccccc2)NS(=O)(=O)O1 (configuration not stated)
110	-12%	Cc1ccc(SCCC(=O)Nc2ccc(OCc3ccccc3)cc2)cc1
111	-6%	COc1ccccc1NC(=O)CN(c1ccc(C23CC4CC(CC(C4)C2)C3)cc1)S(C)(=O)=O
112	1%	COCCNC(=O)c1ccc2c(c1)nc(C)n2-c1cc(OC)c(OC)c(OC)c1
113	0%	O=C(O)c1cc(S(=O)(=O)N2CCCc3ccccc32)ccc1Cl
114	-15%	CCN(CC)C1CCN(Cc2c(C(=O)N3CCCCCCC3)nc3ccc(Cl)cn23)C1 (configuration not stated)
115	2%	CC(C(=O)NCC1CCCCC1)N(C)Cc1ccc(Cl)cc1 (configuration not stated)
116	10%	CCN(C(=O)CSc1nnc(C)n1-c1cccc(C)c1)C1CCS(=O)(=O)C1 (configuration not stated)
117	-10%	CC1=C(C)C(=O)OC(C(C)C2CCC3C4CC=C5CC(OC6OC(COC7OC(CO)C(O)C(O)C7O)C(O)C(O)C6O)CC(O)C5(C)C4CCC23C)C1 (configuration not stated)

Source: PubChem BioAssay (National Center for Advancing Translational Sciences (NCATS))
